Assay outcomes from PubChem BioAssay.
TRPML1 agonist = qHTS for Agonists of the Human Mucolipin Transient Receptor Potential 1 (TRPML1); activation, % (concentration not given with the values); AID 624414, 2012; 0.12% of 410,000 active; Mucolipin-1 (Homo sapiens), Q9GZU1; TRPML1-expressing cells, Ca2+ dye fluorescence, FDSS; host cell line not named in the record; reference of the full effect not given here; in the data active = activation above about 50%; inconclusive = about 30% to 50%; inactive = below about 30%; also: 0% is about no effect; the text of the record puts the active cut at 80%
Target sequence (Q9GZU1 whole entry, looked up): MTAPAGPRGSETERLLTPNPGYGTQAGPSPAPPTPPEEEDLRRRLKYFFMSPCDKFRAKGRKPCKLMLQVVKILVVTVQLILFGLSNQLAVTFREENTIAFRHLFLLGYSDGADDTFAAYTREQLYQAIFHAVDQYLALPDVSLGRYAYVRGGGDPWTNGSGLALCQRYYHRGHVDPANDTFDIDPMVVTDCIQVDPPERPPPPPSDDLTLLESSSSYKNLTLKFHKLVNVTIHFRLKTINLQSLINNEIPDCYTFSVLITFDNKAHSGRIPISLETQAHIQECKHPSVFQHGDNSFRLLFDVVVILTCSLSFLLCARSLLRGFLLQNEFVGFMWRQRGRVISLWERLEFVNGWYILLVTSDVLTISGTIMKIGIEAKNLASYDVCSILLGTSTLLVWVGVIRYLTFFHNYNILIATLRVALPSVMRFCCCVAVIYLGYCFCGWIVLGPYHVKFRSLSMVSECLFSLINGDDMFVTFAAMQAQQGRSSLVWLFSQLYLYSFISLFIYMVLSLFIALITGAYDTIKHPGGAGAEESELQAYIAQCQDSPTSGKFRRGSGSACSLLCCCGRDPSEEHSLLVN
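In this qHTS format, compounds were pin-transferred onto Ca8-dye-loaded TRPML1-DL cells induced with Tet overnight, and intracellular Ca2+ fluorescence was recorded kinetically for 110 s after a 10 s baseline. A subsequent 4uM final 54-4 (EC80) addition followed by a second 110 s read served as the antagonist phase.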
Six1-Eya2 inh = qHTS Assay for Inhibitors of the Six1/Eya2 Interaction; 0.56% of 360,000 active; AID 651725, 2012; activity change, % (no concentration beside the values); AlphaScreen GST-Six1/His-Eya2 binding, biochemical; hits give low values; control for the full effect not named in the record; Homeobox protein SIX1 (Homo sapiens) + Protein phosphatase EYA2 (Homo sapiens), …; in the data active = activity change below about -65%; inconclusive = about -30% to -65%; inactive = above about -30%; also: % is scaled to controls: 0 for no effect and ±100 for the full control effect; compound concentration not given in the record
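GST-Six1 + His-Eya2 (5X stock: 250/500 nM); Tris pH 8.0, 300 mM NaCl, 0.05% BSA, 0.02% Tween 20; GSH donor/Ni acceptor beads; 1 h 37 °C dark; AlphaScreen readout.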
PINK1 modulator = A Quantitative High throughput Screen to Identify Chemical Modulators of PINK1 Expression; Potency, µM (series often up to 76.6 µM), for the others: top-dose activation (PINK1 increase), hits mostly activators; PINK1 immunofluorescence, high-content cytometry, 24 h; 0.2% of 410,000 active; active = well fitted activation curve with a large enough effect; inconclusive = small, poorly fitted or top-dose-only effect; inactive = flat fitted curve, though single readings scatter; cell line not stated here;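 also: potency is read from the fitted curve at half-maximal effect; % of control where 0% means no effect; nearly all actives have a fitted effect of over 65% in size; a mitochondrial uncoupler was the plate control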
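Measures PINK1 amount and localization on or inside mitochondria by immunofluorescence. Stable cells get compounds at 5 concentrations for 24 hours before fixation and staining; CCCP controls included.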
TRPML1 inh = qHTS for Inhibitors of the Human Mucolipin Transient Receptor Potential 1 (TRPML1) | Mucolipin-1 (Homo sapiens), Q9GZU1 | TRPML1-inducible cells, Ca2+ dye fluorescence, FDSS; hits give low values; inhibition of EC80 agonist-evoked calcium signal | activity change, negative = inhibition, % (no concentration beside the values) | 0.02% of 390,000 active | AID 624415, 2012; in the data active means activity change below about -50%; inconclusive means about -30% to -50%; inactive means above about -30%;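 also: stimulus is agonist 54-4 at its EC80 concentration; % is scaled to controls: 0 for no effect and ±100 for the full control effect; compound concentration not given in the record; the text of the record puts the active cut at -80%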
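Tet-induced TRPML1-DL cells loaded with Ca8 no-wash calcium dye were read kinetically on FDSS. Compound addition was followed by EC80 agonist 54-4 (4 uM final); inhibition was read over 110 s.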
D2 ag = Beta-Arrestin HTS for Positive Allosteric Modulators of the Human D2 Dopamine Receptor: Agonists. D(2) dopamine receptor (Homo sapiens), P14416. DiscoveRx PathHunter D2 beta-arrestin, luminescence, 90 min; 100% = 57 uM dopamine signal. activation, % (test concentration not listed). 0.084% of 360,000 active. AID 624465, 2012; in the data active = activation above about 40%; inconclusive = about 15% to 40%; inactive = below about 15%; also: compound concentration not given in the record; the text of the record calls up to 30% inactive
Target sequence (P14416 whole entry, looked up): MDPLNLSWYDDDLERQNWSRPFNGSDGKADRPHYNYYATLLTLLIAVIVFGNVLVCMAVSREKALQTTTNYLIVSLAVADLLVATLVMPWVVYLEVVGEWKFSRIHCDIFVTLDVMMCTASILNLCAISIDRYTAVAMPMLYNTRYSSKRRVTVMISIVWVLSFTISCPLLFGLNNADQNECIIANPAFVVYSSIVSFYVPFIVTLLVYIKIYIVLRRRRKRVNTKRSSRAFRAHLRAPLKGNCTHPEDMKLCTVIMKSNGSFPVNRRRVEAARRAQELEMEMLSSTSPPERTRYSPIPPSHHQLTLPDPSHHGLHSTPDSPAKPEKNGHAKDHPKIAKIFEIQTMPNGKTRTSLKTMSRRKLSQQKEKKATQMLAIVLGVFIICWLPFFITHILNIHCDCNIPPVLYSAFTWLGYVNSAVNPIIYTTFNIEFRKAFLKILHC
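Agonist mode: compounds alone added to overnight-plated D2 PathHunter cells for 90 min at 37 C, with 57 uM final dopamine (EC100) defining full response. Beta-arrestin recruitment detected by chemiluminescent reagent, read after 1 h at ambient temperature.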
CtBP-E1A inh = qHTS Assay for Inhibitors of the CtBP/E1A Interaction. CtBP / adenovirus E1A interaction (AlphaScreen). AlphaScreen GST-E1A/His-CtBP binding, 1536-well; hits give low values; control for the full effect not named in the record. activity change, % (test concentration not listed). 0.49% of 340,000 active. AID 651724, 2012; in the data active means activity change below about -65%; inconclusive means about -30% to -65%; inactive means above about -30%; also: % is scaled to controls: 0 for no effect and ±100 for the full control effect; compound concentration not given in the record
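GST-E1A and His-tagged CtBP (125 nM each as 5X stock) were preincubated with pin-transferred compound for 2 h at 37 °C in the dark, then glutathione donor and nickel acceptor beads were added for 1 h before AlphaScreen reading.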
The depositor's hits bear a star; ? = inconclusive; · = not tested or not shown; & = joins results of further samples; [ ] = dose if it differs, or a comment. Rows were taken by chance; about 1% have a hit in one of these screens.

SMILES	TRPML1 agonist	Six1-Eya2 inh	PINK1 modulator	TRPML1 inh	D2 ag	CtBP-E1A inh
CCn1cc(S(=O)(=O)c2ccc(OC)cc2)c(=O)c2cc(F)c(N3CCN(C)CC3)cc21	-0.1	-2	-0.7%	-7	-6.7	?
COc1ccccc1NC(=O)C1=C(C)Nc2nc(CCCO)nn2C1c1cccnc1 (centres undefined)	-0.3	-8	3.2%	5	-4.8	3
Cc1ccc(NC2=NCC(=O)N2Cc2ccc3c(c2)OCO3)c(C)c1	1.6	0	-1.9%	14	0.1	2
CC1CCN(C(=O)CSc2nc(C(C)C)nc3c2c(=O)n(C)c(=O)n3C)CC1	-0.1	8	-1.2%	0	2.0	-4
COCCNC(=O)CN(CCc1ccccc1)S(=O)(=O)c1ccc(Br)cc1	0.4	12	-0.8%	-3	-2.1	0
O=C1CCSC2(C(=O)N(Cc3ccccc3)c3ccccc32)N1c1ccccc1 (centres undefined)	2.6	·	-0.6%	7	·	·
Cc1cc(/C=N/n2cnnc2)c(C)n1-c1ccc(Cl)cc1	0.8	-3	-1.6%	17	-1.9	-4
CCCCCCCCCCCCCCCC[N+](C)(C)CC	0.4	7	1.1%	-8	-5.4&-1.5	5
CCOC(=O)c1ccc(NC(=O)CN(c2ccc(C)cc2)S(=O)(=O)c2c(C)noc2C)cc1	-0.6	·	9.2%	3	·	·
CS(=O)(=O)N(CC(=O)Nc1cccnc1)c1ccc2c(c1)OCCO2	0.5	6	2.5%[38.3 µM]	5	-0.2	5
O=C(NC1CCN(Cc2ccccc2)CC1)c1ccc(N2CC3CC(C2)c2cccc(=O)n2C3)c([N+](=O)[O-])c1 (centres undefined)	-0.5	9	1.4%	3	-3.0	7
Cc1cc(S(=O)(=O)Nc2cc(C)c(O)c(C)c2)c(C)s1	2.1	56	1.9%[38.3 µM]	4	5.6	0
O=C(NC1CCCCC1)N1CCc2ccccc2C1	0.8	0	-0.1%	-3	-4.4	-14
COc1ccc(OC)c(NC(=O)c2cccc3c2C(=O)N(C2CCCCC2)C3)c1	2.7&3.6	-5	-0.8%&9.6%	8&47	-3.6	·
CCCn1c(SCC(=O)N(CC)c2c(N)n(Cc3ccccc3)c(=O)[nH]c2=O)nnc1-c1ccncc1	0.8	21	0.7%	-6	-0.6	0
O=S1(=O)CCOCCCN1Cc1ccccc1	0.0&-0.5	9	-0.4%	8	0.0	1
CC1(C(=O)Nc2ccc(Cl)c(C(F)(F)F)c2)Cc2c(-c3cccc(C(N)=O)c3)ccnc2O1 (centres undefined)	0.3	-20	4.9%	·	10	?
C=CC[C@@H](CC(=O)N[C@@H](CO)Cc1ccccc1)C(=O)N[C@@H](COC(=O)[C@@H](CC=C)CC(=O)OC(C)(C)C)Cc1c[nH]c2ccccc12	0.4	-4	8.9%	-13	2.0	-2
CC(=O)Nc1cccc(-c2ccnc3c2CC(C)(C(=O)NCCN(C)C)O3)c1 (centres undefined)	-0.2	0	2.3%	·	-2.4	0
O=C(CCCN1C(=O)/C(=C/c2cccs2)SC1=S)Nc1cccnc1	0.8	-2	7.8%	-13	1.3	24
C=CCOC(=O)C1=C[C@H](c2ccc(Br)cc2)C[C@H](OCCCCO)O1	0.2	-3	1.0%	0	-0.6	·
O=C(Nc1sc2c(c1C(=O)O)CCC2)c1cccc(Cl)c1	-0.4	-18	1.5%	-4	-0.9	-15
CCCS(=O)(=O)NC(=O)C1(C)CCN(C(=O)c2ccc3c(c2)OCO3)C1 (centres undefined)	-0.8	7	0.2%	·	2.0	8
N#Cc1cnc2ncnn2c1-c1ccccc1	-0.6	0	0.3%	-1	-0.4	·
CN1CCN(C(=S)NC(=O)/C=C/c2ccccc2Cl)CC1	0.5	10	-1.0%	-3	0.8	24
CCc1cccc(OCCCCNCCOC)c1	3.4	0	-1.5%	0	-0.3	5
Cn1c(=O)c2cc(NC(=S)NC3CC3)ccc2n1Cc1ccc(F)cc1	-0.5	3	0.2%	·	3.8	-2
CN(C)CCC(=O)c1cccc(Br)c1	-0.4	3	4.1%	12	-4.9	·
O=C(NNS(=O)(=O)c1ccc(F)cc1)c1cnccn1	-0.3	0	0.6%	4	-2.5	7
Cc1nn(Cc2ccccc2Cl)c(C)c1NC(=O)c1cc(C(C)C)on1	-1.3	·	1.8%	-2	·	·
COCCCn1cc(CN2CC(N3CCSCC3)CS2(=O)=O)nn1 (centres undefined)	-0.2	12	-0.3%	·	·	-13
COCC(=O)N1CCN(c2nc3ccccc3o2)CC1	-0.2	-3	3.8%	-2	-5.9	7
O=C(CSc1ncn[nH]1)NCc1ccccc1	1.8	4	-1.0%	4	-1.3	7
CN(C)/C=C(/C(=O)c1ccccc1)S(=O)(=O)c1ccc(Cl)cc1	-0.1	-1	5.2%	6	-2.4	0
COc1ccc(NC(=O)C(=O)NCCN2CCN(C(=O)c3ccc(C)cc3)CC2)cc1	-0.5	-14	0.0%	4	0.1	-3
Cc1cc(NC(=O)CSc2ncn(-c3ccccc3)n2)no1	0.3	2	-1.2%	15	-0.3	5
O=C(CSc1nnc(CNC(=O)c2ccccc2F)o1)NCc1ccccc1	0.1	12	1.4%	-2	-3.2	11
COc1cccc(OC)c1OCCOc1ccccc1OC(C)C	0.7	-1	1.2%	-2	-1.7	12
CC(=O)NCC(=O)N1CCCC(C(=O)c2ccc3c4c(cccc24)CC3)C1 (centres undefined)	0.4	-13	0.0%	18	11	·
COc1ccc(F)cc1CN1CCN(C(=O)CCC(=O)Nc2nnc(CC(C)C)s2)CC1	1.2	-6	-0.6%	20	0.7	·
Cc1ccc(-n2nc3c(c2NC(=O)C2CC2)CS(=O)(=O)C3)cc1	-0.6	1	0.3%	1	-4.1	5
COc1ccc(CCC(=O)NNC(=O)Nc2cc(Cl)ccc2C)cc1	0.0	11	-0.7%	4	-7.8	-4
CCOc1ccc(CCNC(=O)C2Cc3ccccc3N2C(=O)CC)cc1 (centres undefined)	0.4	·	0.8%	-9	·	·
COc1cc(/C=N/NC(=S)NCc2ccco2)cc(OC)c1OC	1.4	-20	-1.5%	10	3.1	-26
CN(C)c1ccc(NC(=O)CSc2nnc(-c3cnccn3)n2C)cc1	0.2	-3	-0.8%	18	-1.8	1
COc1cc(CCC(=O)Nc2ccc(Br)c(C(F)(F)F)c2)cc(OC)c1OC	0.5	-4	?	-15	5.8	21
N/C(=N\OC(=O)C1CCCCC1)c1ccc(Cl)cc1	0.8	21	1.9%	-8	-0.6	19
Cn1cc(-c2coc3c(C(=O)Nc4ccccc4)cccc23)cn1	-0.4	-21	1.8%	·	11	-18
O=c1c2ccccc2nc2n1CCCCN2	-0.1	5	0.3%	-3	-2.9	7
CCN1C(=S)N[C@@H](CCc2ccccc2)C(C(=O)OC)=C1C	-0.9	-3	1.6%	-14	1.2	-5
(next part)
SMILES	TRPML1 agonist	Six1-Eya2 inh	PINK1 modulator	TRPML1 inh	D2 ag	CtBP-E1A inh
C=CCNC(=S)NC(=O)c1oc2ccccc2c1C	1.2	-3	4.5%	-7	4.2	3
N/C(=N\OC(=O)c1cccnc1)c1ccccc1Cl	1.6	-9	2.1%	49	9.5	·
O=C(O)Cn1c(P(=O)(O)c2ccccc2)nc2ccccc21	-0.3	8	1.3%	4	0.4	13
COc1cccc(/C=C2\Oc3cc(OCC(=O)N4CCCC4)ccc3C2=O)c1OC	0.3	2	0.5%	20	?	·
COc1cc(Cl)ccc1OCc1cc(C(=O)N2CCN(c3ccccn3)CC2)no1	-0.3	-5	0.7%	12	2.8	-2
COc1ccc(CCC(=O)NC2=NCCS2)cc1OC	1.2	-21	-1.5%	42	-2.4	-7
Cc1ccc(C(=O)C2=C(O)C(=O)N(Cc3ccco3)C2c2cccc(Br)c2)o1 (centres undefined)	4.4	-16	0.2%	-27	9.6	-4
CCOC(=O)c1ccc(NC(=O)CSc2nc(=O)n3cccc(C)c3n2)cc1	-0.5	?	-0.8%	-3	4.5	2
CS(=O)(=O)C1=NSC2=NC(=O)/C(=C\c3ccc(OS(=O)(=O)c4ccccc4)cc3)C(=N)N21	0.6	-18	2.4%	8	-5.9	·
O=C(COC(=O)c1cc(=O)[nH]c2ccccc12)c1cccs1	2.5	-6	-1.5%	-15	3.1	3

Already shown: two of the compounds above.
SMILES	TRPML1 agonist	Six1-Eya2 inh	PINK1 modulator	TRPML1 inh	D2 ag	CtBP-E1A inh
CS(=O)(=O)C1=NSC2=NC(=O)/C(=C\c3ccc(OS(=O)(=O)c4ccccc4)cc3)C(=N)N21	0.6	-18	2.4%	8	-5.9	·
O=C(COC(=O)c1cc(=O)[nH]c2ccccc12)c1cccs1	2.5	-6	-1.5%	-15	3.1	3

Going on with the list:
SMILES	TRPML1 agonist	Six1-Eya2 inh	PINK1 modulator	TRPML1 inh	D2 ag	CtBP-E1A inh
Cc1ccc(Cn2c(C(C)Nc3nc(C)cs3)nc3cc(Cl)c(Cl)cc32)cc1 (centres undefined)	0.0	-3	2.4%	18	1.0	·
N#CCCn1ncn(-c2ccccc2)c1=S	1.1	8	0.7%	31	2.0	3
CC(=O)Nc1ccc(-c2ccnc3c2CC(C)(C(=O)NCc2ccco2)O3)cc1 (centres undefined)	-0.2	2	6.6%	·	4.5	1
Cc1nn(-c2ccccc2)c(=O)c2ccccc12	0.9	7	0.1%	21	-6.8	-1
CCc1ccccc1NC(=O)CCNC(=O)Cn1ccc2ccccc2c1=O	-0.2	5	2.1%	4	3.7	7
Cc1cccc(Cn2c(=O)n(CC3CCC(C(=O)N4CCOCC4)CC3)c(=O)c3sccc32)c1 (centres undefined)	0.8	·	2.6%	-11	·	·
CC(=O)c1ccc(NC(=S)NNC(=O)c2ccncc2)cc1	0.6	1	3.4%	13	0.3	15

Exported with values under each structure: entries from further up.
Screens in order – TRPML1 agonist | Six1-Eya2 inh | PINK1 modulator | TRPML1 inh | D2 ag | CtBP-E1A inh
> CCc1ccccc1NC(=O)CCNC(=O)Cn1ccc2ccccc2c1=O
  -0.2 | 5 | 2.1% | 4 | 3.7 | 7
> Cc1cccc(Cn2c(=O)n(CC3CCC(C(=O)N4CCOCC4)CC3)c(=O)c3sccc32)c1 (centres undefined)
  0.8 | · | 2.6% | -11 | · | ·
> CC(=O)Nc1ccc(-c2ccnc3c2CC(C)(C(=O)NCc2ccco2)O3)cc1 (centres undefined)
  -0.2 | 2 | 6.6% | · | 4.5 | 1
> Cc1nn(-c2ccccc2)c(=O)c2ccccc12
  0.9 | 7 | 0.1% | 21 | -6.8 | -1
> N#CCCn1ncn(-c2ccccc2)c1=S
  1.1 | 8 | 0.7% | 31 | 2.0 | 3
> CC(=O)c1ccc(NC(=S)NNC(=O)c2ccncc2)cc1
  0.6 | 1 | 3.4% | 13 | 0.3 | 15
